Assay outcomes (PubChem BioAssay)
PINK1 expr mod: modulators of PINK1 expression; AID 624263; 410,000 tested, 0.2% active; Potency, µM (series often up to 76.6 µM), without a hit: at the highest dose activation (PINK1 increase), usual class: activators; PINK1 immunofluorescence, high-content cytometry, 24 h; active = well fitted activation curve with a large enough effect; inconclusive = small, poorly fitted or top-dose-only effect; inactive = flat fitted curve, though single readings scatter; cell line not stated here;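 also: potency is read from the fitted curve at half-maximal effect; % of control where 0% means no effect; nearly all actives have a fitted effect of over 65% in size; a mitochondrial uncoupler was the plate control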
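Stable cell line treated 24 h with compounds at 5 concentrations (CCCP controls), then fixed and immunostained for PINK1 plus nuclear and cell stains; PINK1 immunofluorescence quantified by laser-scanning microplate cytometry.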
Six1-Eya2 blk: Six1/Eya2 interaction inhibition; 360,000 tested, 0.56% active; AID 651725; Q15475+O00167; AlphaScreen GST-Six1/His-Eya2 binding, biochemical; stronger effect = lower value; control for the full effect not named in the record; activity change, % (no concentration beside the values); in the data active = activity change below about -65%; inconclusive = about -30% to -65%; inactive = above about -30%; also: % is scaled to controls: 0 for no effect and ±100 for the full control effect; compound concentration not given in the record
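Homogeneous AlphaScreen proximity assay pairing GST-Six1 with His-tagged Eya2 (added as 5X mix: 250 nM and 500 nM) in 50 mM Tris pH 8.0, 300 mM NaCl, 1 mM TCEP. Glutathione donor and nickel acceptor beads; 1 h, 37 °C, dark.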
CtBP-E1A blk: CtBP/E1A binding inhibition | AlphaScreen GST-E1A/His-CtBP binding, 1536-well; stronger effect = lower value; control for the full effect not named in the record | activity change, % (concentration not given with the values) | 340,000 tested, 0.49% active; in the data active means activity change below about -65%; inconclusive means about -30% to -65%; inactive means above about -30%; also: % is scaled to controls: 0 for no effect and ±100 for the full control effect
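Steps: dispense buffer (Tris pH 8.0, NaCl 300 mM, TCEP 1 mM, BSA, Tween 20); add 5X protein mix (GST-E1A, His-CtBP, 125 nM each); pin 23 nL compound; 2 h at 37 °C, dark; add 5X beads (50 ug/mL); 1 h; read.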
D2 ag: activates the human D2 dopamine receptor | DiscoveRx PathHunter D2 beta-arrestin, luminescence, 90 min; 100% = 57 uM dopamine signal | 360,000 tested, 0.084% active | activation, % (no concentration beside the values) | AID 624465 | P14416; in the data active = activation above about 40%; inconclusive = about 15% to 40%; inactive = below about 15%; also: compound concentration not given in the record; the text of the record calls up to 30% inactive
Target sequence (P14416 whole entry, looked up): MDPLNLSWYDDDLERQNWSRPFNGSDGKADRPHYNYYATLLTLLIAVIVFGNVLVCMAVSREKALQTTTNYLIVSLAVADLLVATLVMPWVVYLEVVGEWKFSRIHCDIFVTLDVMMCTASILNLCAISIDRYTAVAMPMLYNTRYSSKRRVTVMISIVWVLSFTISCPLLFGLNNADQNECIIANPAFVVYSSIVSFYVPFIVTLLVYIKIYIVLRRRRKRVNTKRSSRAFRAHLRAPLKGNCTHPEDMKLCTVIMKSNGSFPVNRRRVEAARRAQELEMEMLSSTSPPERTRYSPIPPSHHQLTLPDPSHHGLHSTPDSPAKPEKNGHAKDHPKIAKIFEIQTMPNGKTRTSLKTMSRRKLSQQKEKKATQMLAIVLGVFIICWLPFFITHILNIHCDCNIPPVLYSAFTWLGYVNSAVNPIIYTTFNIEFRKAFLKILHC
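Agonist mode: compounds alone added to overnight-plated D2 PathHunter cells for 90 min at 37 C, with 57 uM final dopamine (EC100) defining full response. Beta-arrestin recruitment detected by chemiluminescent reagent, read after 1 h at ambient temperature.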
D2 potentiator: potentiates the human D2 dopamine receptor allosterically. P14416. DiscoveRx D2 beta-arrestin cells, luminescence, 90 min; 100% = 57 uM dopamine signal. potentiation, % (concentration not given with the values). 360,000 tested, 0.23% active; active = potentiation of 50% or more; inconclusive = 30% to 50%; inactive = 30% or less;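 also: compound concentration not given in the record; tested on top of an EC20 dose of dopamine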
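PathHunter D2 cells, attached overnight at 37 deg C, received compound in DMSO plus dopamine at EC20 (50 nM final) for 90 min at 37 deg C. Beta-arrestin recruitment was read as luminescence after 1 h with detection reagent at ambient temperature.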
TRPML1 ag: agonists of human TRPML1 channel; Q9GZU1; TRPML1-expressing cells, Ca2+ dye fluorescence, FDSS; host cell line not named in the record; reference of the full effect not given here; activation, % (test concentration not listed); 410,000 tested, 0.12% active; AID 624414; in the data active = activation above about 50%; inconclusive = about 30% to 50%; inactive = below about 30%; also: 0% is about no effect; the text of the record puts the active cut at 80%
Target sequence (Q9GZU1 whole entry, looked up): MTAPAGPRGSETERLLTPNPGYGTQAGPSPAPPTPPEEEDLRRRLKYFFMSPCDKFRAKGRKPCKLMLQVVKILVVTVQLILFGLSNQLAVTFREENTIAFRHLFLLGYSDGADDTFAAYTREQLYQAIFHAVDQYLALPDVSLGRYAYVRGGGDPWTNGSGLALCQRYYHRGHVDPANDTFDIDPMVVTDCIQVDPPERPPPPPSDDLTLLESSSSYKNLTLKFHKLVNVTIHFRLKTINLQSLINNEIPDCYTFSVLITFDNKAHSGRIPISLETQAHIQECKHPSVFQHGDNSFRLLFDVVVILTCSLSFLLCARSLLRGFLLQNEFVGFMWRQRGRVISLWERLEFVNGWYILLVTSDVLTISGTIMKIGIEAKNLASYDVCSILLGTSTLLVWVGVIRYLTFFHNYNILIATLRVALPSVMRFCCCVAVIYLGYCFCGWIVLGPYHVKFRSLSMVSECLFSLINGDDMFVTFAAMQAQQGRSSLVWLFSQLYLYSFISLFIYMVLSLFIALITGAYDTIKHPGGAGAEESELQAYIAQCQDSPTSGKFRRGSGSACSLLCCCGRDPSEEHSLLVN
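Tet-induced TRPML1-DL cells, 1,500 per well, cultured overnight, were loaded with a no-wash Ca2+ dye for 45–90 min. Calcium fluorescence was recorded on the FDSS for 110 s after compound addition, before the EC80 agonist (4 uM 54-4) was added.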
* hit, by the source's call; ? = inconclusive; · = no result given; & = joins results of further samples; [ ] = another dose, or the depositor's remark.

SMILES,PINK1 expr mod,Six1-Eya2 blk,CtBP-E1A blk,D2 ag,D2 potentiator,TRPML1 ag
CN(C)c1cccc(NC(=O)CCc2ccccc2)c1,-0.6%,6,-1,-0.9,27,-0.9
COc1cccc(NC(=O)CN(C)C(=O)c2cccc(S(=O)(=O)N3CCN(c4ccccc4)CC3)c2)c1,-0.4%,-9,-9,8.0,-35,0.7
c1ccc2c(CNn3cnnc3)cccc2c1,-0.8%,-2,7,-0.9,-2,-0.8
CCN(CC(=O)NCc1cccs1)C(=O)COc1cccc(C(F)(F)F)c1,0.7%,1,1,-1.5,-5,1.6
Cc1c(C(c2ccccc2O)c2c(C)n(C)n(-c3ccccc3)c2=O)c(=O)n(-c2ccccc2)n1C,0.8%,17,·,-2.2,-2,1.4
CC[C@]12c3[nH]c4ccc(Cl)cc4c3CCN1C(=O)[C@@H](CC(=O)NC(C)(C)C)C[C@@H]2C(=O)N1CCN(C(=O)c2ccco2)CC1,1.6%,-5,-6,-1.5,5,0.6
CCCCNC(=O)c1ccc2c(c1)N(C)C(=O)c1ccccc1S2,1.0%,5,·,1.4,-13,0.2
COCC(=O)NCc1nc2ccccc2[nH]1,-1.0%,5,5,1.4,1,0.9
CCOCc1cc(=O)[nH]c(SC)n1,1.5%,6,·,2.9,-35,2.4
CC(=O)Nc1ccc2c(c1)Cc1c(F)cccc1-2,-0.5%,0,0,1.3,-22,-0.5
Cc1ccc(C(=O)NN2C(=O)C3C4C=CC([C@@H]3C2=O)C42CC2)cc1 (stereo partly drawn),1.2%,1,·,0.3,2,1.7
Cc1cc(C(=O)N(Cc2nnc(-c3ccc(Cl)cc3)o2)C(C)C)c2ccccc2n1,0.7%,2,-12,-3.8,-17,0.2
CCOC(=O)c1cc2occc2n1CC(=O)N1CCN(C(=O)c2ccco2)CC1,-5.9%[38.3 µM],6,5,-2.2,0,-0.1
CSCCC(NS(=O)(=O)c1ccccc1F)C(=O)NCc1cccs1 (stereo not drawn),-0.3%,-15,-18,-3.5,0,0.3
CC1CCCC(NC(=O)C2CCN(S(=O)(=O)c3cccc4nonc34)CC2)C1C (stereo not drawn),1.4%,7,4,0.1,-4,-0.7
CCN1CCN(CCCNC(=O)CS(=O)(=O)Cc2nc(-c3cccc(OC)c3)oc2C)CC1,-0.3%&-1.1%,-1,5,-5.3,-21,-0.8&-0.7
COc1cccc(OCc2nnc(SCC(=O)N3c4ccccc4Sc4ccc(Cl)cc43)o2)c1,-1.4%,4,-6,1.7,-15,0.0
COc1ccc(-c2c(-c3ccc(C#N)cc3)oc(=O)c3cc(OC)c(OC)cc23)cc1,0.8%,4,16,-0.6,4,1.3
O=C(O)C1CCCN(C(=O)c2cccc3ccccc23)C1 (stereo not drawn),1.2%,-3,2,-3.8,-5,-0.4
CC(C)(C)c1ccc(Nc2n[nH]c3ccccc23)cc1,0.2%,-7,-18,13,0,0.0
CCCCC(=O)Nc1cccc(C(=O)Nc2ccccc2C(=O)O)c1,-0.6%,0,16,0.4,9,2.5
COc1ccc(Cl)cc1N/C(N)=N/c1nc(C)cc(C)n1,-1.1%,-5,8,-1.0,-5,4.0
COC(=O)c1cc(S(=O)(=O)NCC2CCN(CCc3ccc(OC)cc3)CC2)c[nH]1,1.9%,3,·,-5.4,-17,0.5
Cc1ccc2c(c1)N(CC(=O)N1CCCCCC1)C(=O)CO2,2.2%[38.3 µM],22,29,0.5,6,-0.5

Pulled by structure from the list above, 3 records:
SMILES,PINK1 expr mod,Six1-Eya2 blk,CtBP-E1A blk,D2 ag,D2 potentiator,TRPML1 ag
COc1ccc(Cl)cc1N/C(N)=N/c1nc(C)cc(C)n1,-1.1%,-5,8,-1.0,-5,4.0
CC(C)(C)c1ccc(Nc2n[nH]c3ccccc23)cc1,0.2%,-7,-18,13,0,0.0
CCN1CCN(CCCNC(=O)CS(=O)(=O)Cc2nc(-c3cccc(OC)c3)oc2C)CC1,-0.3%&-1.1%,-1,5,-5.3,-21,-0.8&-0.7

Later entries:
SMILES,PINK1 expr mod,Six1-Eya2 blk,CtBP-E1A blk,D2 ag,D2 potentiator,TRPML1 ag
C[C@H]1CN(CCc2ccccc2)C(=O)[C@@H]1CC(=O)NCc1ccccc1,-0.2%,7,5,-1.5,-4,0.6&0.9
CCNc1ccc(C(=O)OCC(=O)N2CCCC2)cc1[N+](=O)[O-],-0.1%,-3,0,-5.1,-6,-1.4
CCCCCCN1C(=O)C(O)=C(C(C)=O)C1c1ccc(Cl)cc1 (stereo not drawn),-2.1%,-2,10,-2.1,-8,1.0
Brc1cccc2sc(N3CCCC3)nc12,4.1%,17,8,-23,-3,2.2
NC(=O)c1c(NC(=O)Cn2cc([N+](=O)[O-])cn2)sc2c1CCCC2,0.9%,-5,-2,0.5,-1,-1.0
CCOC(=O)CSc1nc2cc(C)cc(C)c2cc1C#N,0.2%,42,25,2.5,8,9.3
Cc1cc(C)c(C(=O)COC(=O)c2nn(C)c(=O)c3ccccc23)cc1C,6.6%,-2,4,-0.9,-2,0.8
COc1ccc(CN2C[C@@H](CO)O[C@@H](n3cnc4c(NCc5ccco5)ncnc43)C2)cc1,-0.4%,-9,0,-1.3,-3,0.0
O=C(CN1C(=O)NC(Cc2c[nH]c3ccccc23)C1=O)Nc1ccc(F)cc1F (stereo not drawn),1.6%,1,-3,-0.8,-24,-0.5
COc1ccc(NC(=O)CCN2CCN(c3ccc(F)cc3)CC2)cc1,8.3%,-8,·,1.9,-15,0.4
O=C(NCCc1ccccc1)c1nc2ncccn2n1,11%[38.3 µM],4,5,-1.4,-3,1.6
Cc1nn(CC(=O)Nc2cccnc2)c(=O)c2ccccc12,1.3%,2,-3,2.4,-4,-0.4
O=C(Nc1ccc(N2CCN(C(=O)c3ccccc3)CC2)cc1)c1cccnc1,1.3%,2,20,1.5,-5,0.3
C[C@H]1CN([C@@H](C)CO)C(=O)c2cc(NC(=O)c3ccncc3)ccc2O[C@H]1CN(C)Cc1ccc(C(=O)O)cc1,0.2%,8,4,-3.8,-5,0.1
Cc1cc2c(n1-c1ccc(Br)cc1)CC(C)(C)CC2=O,-0.9%,-8,-23,-0.9,-17,0.7
NC(=O)CN1C(=O)NC(c2ccccc2)(c2ccccc2)C1=O,0.9%,0,4,-2.9,-4,-0.3
CCOC(=O)C1CCN(c2cc3c(cc2NC(=O)c2ccccc2)n(C)c(=O)n3C)CC1,2.8%,2,0,-2.4,5,1.1
CC(C)(C)c1ccc(OCc2ccc(C(=O)N/N=C/c3ccc(O)c(O)c3)cc2)cc1,1.6%,-8,-4,0.3,15,-0.5
Cc1cccc(-c2nc3c(s2)CCc2onc(-c4ccc(Br)cc4)c2-3)c1,2.0%,4,3,-2.0,-4,-0.4
CCCn1c(O)c(N=NC(=O)CNC(=O)Cc2ccc(OC)cc2)c2ccccc21,-1.3%,4,-8,-4.0,-23,1.1
CN1CCN(C(=O)c2ccccc2NC(=O)c2sc3ccccc3c2Cl)CC1,-1.5%,-8,3,-0.7,-10,-1.6
COc1cc(C)nc(N2CCC(C(N)=O)CC2)n1,1.1%[38.3 µM],4,6,0.1,-2,0.3
O=C(OCC(=O)c1c[nH]c2ccccc12)c1ccc(F)c(S(=O)(=O)N2CCOCC2)c1,0.4%,-8,-2,-0.2,-7,0.5
CC(C)COC(=O)c1cc(=O)[nH]c2ccccc12,-1.0%,-3,-4,-4.3,-18,-1.2
Cc1cc(=O)n(-c2ccc(O)cc2)[nH]1,-0.9%,-1,-6,-2.7,-12,1.0
CCN(CC)c1nc(-c2ccc(Cl)cc2)cc(C(F)(F)F)c1C#N,0.5%,9,-5,-2.5,3,-0.2
COc1ccc(C2(C)NC(=O)N(CC(=O)Nc3ccc(-c4nc5ccc(C)cc5s4)cc3)C2=O)cc1 (stereo not drawn),3.1%,5,0,-2.2,3,0.0
O=C(CNC(=O)c1ccccc1Cl)NC1CCN(Cc2ccccc2)CC1,1.6%,5,2,-0.9,-5,0.8
COc1ccc(-c2csc(NC(=O)CN3C(=O)NC4(CCCC4)C3=O)n2)cc1,10%,-2,-15,0.6,2,-0.7
O=C(NC1CCCCC1)C(c1ccco1)N(C(=O)c1csnn1)c1cccc(F)c1 (stereo not drawn),10%,15,15,-3.2,-3,0.7
S=c1[nH]cc(-c2ccccc2)n1-c1ccccc1,-0.3%,-4,-5,0.8,8,-1.1
COc1ccc(N2CCN(S(C)(=O)=O)CC2)cc1,-1.6%[38.3 µM],7,2,1.0,-2,-0.3
COC(=O)c1ccc(NC(=O)CN2CCN(c3ccccc3)CC2)cc1,-0.4%[38.3 µM],-4,-4,?,13,-0.7
Cn1cccc1/C=C1\SC(=O)N(CC(=O)Nc2ccc(F)cc2)C1=O,-2.8%,4,-2,1.6,-4,0.1
O=C(NC1CCCc2c1cnn2-c1cc(F)cc(F)c1)c1ccncc1 (stereo not drawn),-0.2%,4,5,-0.8,-7,0.1
O=C(NCCCn1ccnc1)/C(=C\c1cccs1)NC(=O)c1ccccc1,1.3%,9,17,-3.4,-9,-0.7
CC1(C)C(c2cccs2)=[N+]([O-])C2(CCCCC/C2=N\NC(N)=O)N1O (stereo not drawn),-0.2%,4,0,3.1,-9,-0.3
CN(C)S(=O)(=O)c1ccc(C(=O)NC2CCCc3ccccc32)cc1 (stereo not drawn),0.5%,6,-10,-2.1,-6,-1.2
Cc1nn(C)cc1-c1n[nH]c(=S)n1-c1ccc(F)cc1,-1.5%,8,0,-3.1,-2,0.2
CCCCCCSc1ccc([C@@H]2[C@@H]3C(=O)N(CC)C(=O)[C@@H]3[C@]3(C(=O)OC)CCCCN23)cc1,25%,-2,5,-1.8,-10,-0.6
COc1ccc(-c2sc3cc(OC)c(OC)cc3c2C#CC(C)(C)O)cc1,3.9%,-11,-7,-0.7,-11,1.0
CCN(CC)c1ccc(/C=N/O)cc1,-0.8%,2,-13,-0.8,-9,2.5
CCCNC(=O)c1ccc(N2CCC3(CC2)CC(c2ccccc2)=NO3)c(N)c1,1.1%,-2,-7,-0.8,-11,0.0
CCN(CC)S(=O)(=O)c1ccc(Cl)c(NC(=O)c2cc(Cl)ccc2Cl)c1,7.8%,-5,5,-3.7,-15,2.8
Cc1cc(=O)[nH]c(SCCCOc2ccc3c(c2)CCC3)n1,-3.6%[38.3 µM],1,8,-1.0,1,3.9
CCN1C(=O)C(CC(=O)Nc2ccc(OC)cc2)N(CCCN2CCN(c3ccc(OC)cc3)CC2)C1=S (stereo not drawn),-1.3%,-28,?,5.5,-1,-0.3
CC(=O)Cc1nsc(NC(=O)c2ccc(-c3cccc(Cl)c3)o2)n1,9.8%,12,5,-3.1,-3,0.6
C/C(=N\NC(=O)c1ccco1)c1ccc(-c2ccccc2)cc1,3.2%,-7,4,-3.2,-7,-0.6
